Bioassay records as filed in PubChem BioAssay.
TDP1 block: blocks human tyrosyl-DNA phosphodiesterase 1 | Q9NUW8 | recombinant TDP1, AlphaScreen DNA substrate cleavage | Potency, µM (titrated, usually from 130 µM), inactives show top-dose activity change, negative = inhibition, most hits filed as inhibitors | 350,000 compounds, 0.28% hits; note: nearly all actives have a fitted effect of over 40% in size
Target sequence (Q9NUW8 whole entry, looked up): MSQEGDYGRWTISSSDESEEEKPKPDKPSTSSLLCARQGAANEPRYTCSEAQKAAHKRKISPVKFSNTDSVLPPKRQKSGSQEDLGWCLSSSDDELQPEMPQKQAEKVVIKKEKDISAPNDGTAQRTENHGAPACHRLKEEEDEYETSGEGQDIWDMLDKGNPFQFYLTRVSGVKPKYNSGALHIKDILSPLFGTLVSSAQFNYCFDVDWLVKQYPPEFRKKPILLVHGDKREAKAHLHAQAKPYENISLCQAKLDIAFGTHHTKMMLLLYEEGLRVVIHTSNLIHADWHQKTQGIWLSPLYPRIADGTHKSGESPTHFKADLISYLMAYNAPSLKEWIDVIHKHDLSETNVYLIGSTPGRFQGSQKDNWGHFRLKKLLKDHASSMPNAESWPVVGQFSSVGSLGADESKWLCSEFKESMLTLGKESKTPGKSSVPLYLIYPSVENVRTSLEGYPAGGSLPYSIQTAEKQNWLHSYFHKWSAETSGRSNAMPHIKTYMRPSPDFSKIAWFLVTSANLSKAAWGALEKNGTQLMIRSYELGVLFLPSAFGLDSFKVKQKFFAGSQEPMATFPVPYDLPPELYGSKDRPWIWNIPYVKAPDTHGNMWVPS
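Recombinant E. coli-expressed Tdp1 (1 nM) preincubated with compound 15 min at RT, then 5'-biotin/3'-phosphotyrosine-FITC DNA substrate (15 nM) added for 5 min. AlphaScreen beads (10 ug/ml) added, 10 min RT; tyrosine-FITC cleavage read as signal loss.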
FEN1 inh: blocks human flap endonuclease 1; P39748; Recombinant FEN1 flap cleavage, fluorescence, 15 min; Potency, µM (titrated, usually from 114 µM), inactives show top-dose activity change, negative = inhibition, usual class: inhibitors; 390,000 compounds, 0.35% hits; note: nearly all actives have a fitted effect of over 65% in size
Target sequence (P39748 whole entry, looked up): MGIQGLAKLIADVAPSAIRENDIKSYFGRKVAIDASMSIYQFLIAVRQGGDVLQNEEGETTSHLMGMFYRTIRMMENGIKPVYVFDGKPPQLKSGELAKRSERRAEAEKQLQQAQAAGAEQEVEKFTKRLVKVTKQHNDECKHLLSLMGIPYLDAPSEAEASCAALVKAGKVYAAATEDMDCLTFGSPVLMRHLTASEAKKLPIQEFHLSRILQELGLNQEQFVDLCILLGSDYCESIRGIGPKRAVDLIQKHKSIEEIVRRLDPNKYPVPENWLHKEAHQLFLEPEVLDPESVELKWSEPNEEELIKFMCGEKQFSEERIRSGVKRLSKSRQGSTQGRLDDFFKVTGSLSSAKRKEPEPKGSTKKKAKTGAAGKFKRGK
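Steps: FEN1 (10 nM) dispensed; compound added by pin tool; 15 min at room temperature; substrate added to 50 nM final; reads at 0 min and 15 min; data normalized and fitted (four-parameter Hill).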
* = called active by the depositor; ? = inconclusive; . = not tested or not shown; & = joins results of further samples. Calls come from the whole dose curve; as a rule, active = well fitted inhibition curve with a large enough effect; inconclusive = small, poorly fitted or top-dose-only effect; inactive = no such curve, though single readings can be large or run the other way. % is set by controls: 0 for no effect and ±100 for the full control effect; potency is the fitted concentration of half-maximal effect.

The first 22 entries (preview)
SMILES	TDP1 block	FEN1 inh
CCOc1ccc(NC(=O)C2CCCN(c3nc(C)cc(C)n3)C2)cc1 (stereo not drawn)	.	2%
Cc1nc(NC(=O)C2CCCC2)sc1Cc1ccc2c(c1)OCO2	5%	-3%
O=C(NCc1cccs1)c1cc(C2CC2)on1	-2%	0%
CCCOc1ccc(-c2cn3ccccc3n2)cc1[N+](=O)[O-]	5%	-5%
C/C(=N\NC(=O)c1ccccc1C)c1ccc(N2CCOCC2)cc1	8%	2%
CCNC(=S)NNC(=O)c1csc2ccccc12	3%	3%
CCCCN1C2=NCCCN2c2cc(C)c(C)cc21	1%	-1%
CCCc1cc(C(=O)NCc2ccccc2)no1	2%	-10%
COCCN(CCOC)C(=O)c1ccc(NS(=O)(=O)c2ccc3[nH]c(=O)[nH]c3c2)cc1	0%	9%
CCOC(=O)C1CCN(S(=O)(=O)c2cc(Br)cc3c2N(C(=O)C2CC2)CC3)CC1	6%	-8%
C=CCn1cc(/C=C2/NC(=O)NC2=O)c2ccccc21	6%	0%
O=C1c2ccccc2NC(c2cccc([N+](=O)[O-])c2)N1CCc1ccccc1 (stereo not drawn)	8%	-3%
O=C(c1cccc(Br)c1)N1CCCC1	4%	-8%
CC(=O)N1CCc2cc(S(=O)(=O)NCCC(=O)N3CCN(Cc4ccccc4)CC3)ccc21	2%	-3%
COC(=O)CNC(=O)C1CCCN1C(=O)CNC(=O)OC(C)(C)C (stereo not drawn)	4%	10%
Cc1nc(-c2ccc(F)cc2)c(CC(=O)N(C)CC(=O)Nc2ccc(Br)cc2C)s1	0%	2%
COc1ccc(CNc2nc(=S)[nH]c3cc(OC)c(OC)cc23)cc1	.	-13%
CC(=O)Nc1ccc(NC(=S)NC(=O)c2ccc([N+](=O)[O-])c(C)c2)cc1	7%	-6%
O=c1cc(N2CCOCC2)[nH]c(=O)n1-c1ccc(Cl)cc1	-13%	12%
O=C(CSc1nc2ccccc2c(=O)[nH]1)N1CCOCC1	0%	6%
Cc1cccc(NC2=C(C#N)C(=O)NC3(CCCC3)S2)c1	3%	-1%
CCOc1ccc2oc(=O)cc(CN3CCN(C(=O)c4ccco4)CC3)c2c1	1%	1%

The list itself, repeating the preview:
SMILES	TDP1 block	FEN1 inh
CCOc1ccc(NC(=O)C2CCCN(c3nc(C)cc(C)n3)C2)cc1 (stereo not drawn)	.	2%
Cc1nc(NC(=O)C2CCCC2)sc1Cc1ccc2c(c1)OCO2	5%	-3%
O=C(NCc1cccs1)c1cc(C2CC2)on1	-2%	0%
CCCOc1ccc(-c2cn3ccccc3n2)cc1[N+](=O)[O-]	5%	-5%
C/C(=N\NC(=O)c1ccccc1C)c1ccc(N2CCOCC2)cc1	8%	2%
CCNC(=S)NNC(=O)c1csc2ccccc12	3%	3%
CCCCN1C2=NCCCN2c2cc(C)c(C)cc21	1%	-1%
CCCc1cc(C(=O)NCc2ccccc2)no1	2%	-10%
COCCN(CCOC)C(=O)c1ccc(NS(=O)(=O)c2ccc3[nH]c(=O)[nH]c3c2)cc1	0%	9%
CCOC(=O)C1CCN(S(=O)(=O)c2cc(Br)cc3c2N(C(=O)C2CC2)CC3)CC1	6%	-8%
C=CCn1cc(/C=C2/NC(=O)NC2=O)c2ccccc21	6%	0%
O=C1c2ccccc2NC(c2cccc([N+](=O)[O-])c2)N1CCc1ccccc1 (stereo not drawn)	8%	-3%
O=C(c1cccc(Br)c1)N1CCCC1	4%	-8%
CC(=O)N1CCc2cc(S(=O)(=O)NCCC(=O)N3CCN(Cc4ccccc4)CC3)ccc21	2%	-3%
COC(=O)CNC(=O)C1CCCN1C(=O)CNC(=O)OC(C)(C)C (stereo not drawn)	4%	10%
Cc1nc(-c2ccc(F)cc2)c(CC(=O)N(C)CC(=O)Nc2ccc(Br)cc2C)s1	0%	2%
COc1ccc(CNc2nc(=S)[nH]c3cc(OC)c(OC)cc23)cc1	.	-13%
CC(=O)Nc1ccc(NC(=S)NC(=O)c2ccc([N+](=O)[O-])c(C)c2)cc1	7%	-6%
O=c1cc(N2CCOCC2)[nH]c(=O)n1-c1ccc(Cl)cc1	-13%	12%
O=C(CSc1nc2ccccc2c(=O)[nH]1)N1CCOCC1	0%	6%

Not a retest: two of the compounds above.
SMILES	TDP1 block	FEN1 inh
COCCN(CCOC)C(=O)c1ccc(NS(=O)(=O)c2ccc3[nH]c(=O)[nH]c3c2)cc1	0%	9%
CCOC(=O)C1CCN(S(=O)(=O)c2cc(Br)cc3c2N(C(=O)C2CC2)CC3)CC1	6%	-8%

The list goes on.
SMILES	TDP1 block	FEN1 inh
Cc1cccc(NC2=C(C#N)C(=O)NC3(CCCC3)S2)c1	3%	-1%
CCOc1ccc2oc(=O)cc(CN3CCN(C(=O)c4ccco4)CC3)c2c1	1%	1%
COc1ccc(-c2cc(C(=O)NCc3cccs3)no2)cc1	.	17%
C/C=C/C(=O)OCC(=O)Nc1ccc(OC)c(OC)c1	3%	1%
COc1ccc(-c2csc(-n3cccn3)n2)cc1	.	-6%
Cn1c(COc2ccc(Cl)cc2)nnc1SCc1ncc(-c2ccccc2)o1	2%	-8%
CCOC(=O)c1sc(NS(=O)(=O)c2ccccc2Cl)nc1C	0%	-3%
Cc1ccc(Cl)c(NC(=O)CCl)c1Cl	12%	-1%
COc1cc(/C=C/C(=O)OCC(=O)Nc2ccc3c(c2)OCCO3)ccc1OCC#N	-1%	10%
CNC(=O)Cc1csc2ccc(C)cc12	3%	-6%
Cc1ccc(-c2nnc(N3CCCCC3)c3ccccc23)cc1S(=O)(=O)N(C)C	4%	22%
CCCN(CC(=O)Nc1ccc(F)c(F)c1F)C(=O)C1CC(=O)N(Cc2ccccc2)C1 (stereo not drawn)	.	3%
COc1cc(C(=O)N(CCN(C)C)CC2CCCN(Cc3ccccc3F)C2)ccc1C (stereo not drawn)	.	-5%
COc1ccc(CCn2nnnc2C(CC(C)C)N2CCN(c3ncccn3)CC2)cc1OC (stereo not drawn)	1%	-2%
CC(OC(=O)CCSc1ccccc1)C(=O)Nc1ccc(S(N)(=O)=O)cc1 (stereo not drawn)	.	-8%
O=C(OCC(=O)N1CCN(c2ccccc2)CC1)c1cnc(Cl)c(Cl)c1	6%	.
COc1cccc(OC)c1C(=O)NC(=S)Nc1ccc2oc(=O)ccc2c1	3%	1%
O=C(CSC(=S)N1CCCC1)N1CCN(S(=O)(=O)c2cccc([N+](=O)[O-])c2)CC1	3%	-1%
CCOC(=O)Cc1csc(NC(=O)CCN2C(=O)c3ccccc3C2=O)n1	2%	5%
COCCN(C(=S)Nc1ccccc1OC)C(C)c1cccs1 (stereo not drawn)	-1%	-3%
CCOc1cc(/C=N\NC(=O)c2ccc(NC(=O)CC)cc2)ccc1OC(=O)c1ccccc1	2%	-7%
CCOC(=O)C1CCN(C(=O)CCCNC(=O)Cn2cnc3sc(C)c(C)c3c2=O)CC1	-14%	4%
COC(=O)CCSCC(=O)Nc1nnc(C)s1	3%	-4%
Cc1ccc2nc(-c3ccccn3)[nH]c2c1	.	13%
CC(C)NC(=O)C1CCN(C(=O)c2cc3sccc3n2Cc2ccc(F)cc2)CC1	-1%	17%
CC(=O)NC1=NN(C(C)=O)C(C)(c2ccco2)S1 (stereo not drawn)	3%	-9%
O=C(N/N=C/c1ccc2c(c1)OCO2)C(=O)Nc1cccc(Cl)c1	14%	-11%
Cn1c(CNc2ccccc2)nc2ccccc21	8%	14%
Cc1ccc(NC(=O)c2cc(S(=O)(=O)N3CCOCC3)c(Br)s2)cc1	2%	-15%
CN(c1ccccc1)S(=O)(=O)c1ccc(C(=O)NCc2cccs2)cc1	1%	3%
COc1cccc(C2CC(c3ccc(Cl)cc3Cl)n3nc(N)nc3N2)c1 (stereo not drawn)	4%	-2%
CCOC(=O)C(C)n1nc(/C=C/c2ccccc2)ccc1=O (stereo not drawn)	0%	-10%
Cc1nc2ccc(Cl)cc2c(-c2ccccc2F)c1CC(=O)O	-1%	-1%
Cc1cc(N2CCN(C/C=C/c3ccccc3)CC2)n2ncnc2n1	-5%	5%
O=C(Cn1c(=O)[nH]c2ccccc2c1=O)Nc1cccnc1	6%	1%
O=C(Nc1cccc2ncccc12)c1ccc(Cl)cc1	8%	0%
O=C(Cc1cccs1)NNC(=S)NC(=O)c1ccccc1	11%	-4%
O=S(=O)(c1ccccc1)N1N=C(c2cccs2)CC1c1cccc(O)c1 (stereo not drawn)	3%	1%
Cc1cc(-n2nc(C)cc2C)n2nc(C)c(-c3ccccc3)c2n1	3%	0%
COCCN(Cc1ccccc1)C(=O)C1CCN(S(=O)(=O)c2ccc(OC)c(OC)c2)CC1	-6%	-6%
COc1cccc(NS(=O)(=O)c2cc3c(cc2C)N(C)CCO3)c1	.	-10%
O=C(OCc1ccc([N+](=O)[O-])cc1)c1cnc(Cl)c(Cl)c1	.	-2%
O=C(NCCc1csc(-c2ccccc2)n1)c1ccc(Br)o1	7%	2%
O=C(O)C1CCC(=O)N1C1CCCC1 (stereo not drawn)	-3%	0%
Cc1c(N)cccc1[N+](=O)[O-]	1%&5%	-12%
CC(=O)Nc1ccc(N2C(=O)C3C4CC(=O)C(c5ccccc54)C3C2=O)cc1 (stereo not drawn)	8%	1%
Cc1ccccc1-c1nc2cc(Cl)ccc2o1	-1%	1%
CC1CCN(CCNC(=O)CN(C)S(=O)(=O)c2cccc3nsnc23)CC1	2%	-10%
Nc1nnc(SCC(=O)NC2CCCCCC2)s1	-17%	0%
COc1ccc(S(=O)(=O)N2CCCCC2)cc1NS(=O)(=O)c1ccccc1F	0%	0%
OCCCCNCc1ccc(OCc2ccc(Cl)cc2)cc1	-1%	0%
CCOc1cc2c3c(c1)C1(C(=O)N3C(C)(C)C=C2C)C(C#N)=C(N)Oc2cc(O)ccc21 (stereo not drawn)	11%	-10%
Cc1c(NC(=O)C(C)Sc2nc3ccccc3c(=O)n2CCO)c(=O)n(-c2ccccc2)n1C (stereo not drawn)	6%	9%
Cc1ccc(S(=O)(=O)CCSc2n[nH]c(=O)n2-c2ccc3c(c2)OCCO3)cc1	.	9%
CCCCN(CC)CCNC(=O)c1cc2c(=O)n(CC)c3ccccc3c2s1	8%	8%&-3%
CC(=O)c1nnn(-c2ccc(Cl)cc2C#N)c1C	2%	-2%
COc1ccc(C(=O)N/N=C/c2cc3ccccc3[nH]c2=S)cc1	9%	-15%
CCOC(=O)C1(CCOc2ccccc2)CCN(CCCn2cccn2)CC1	.	3%
CN(c1ccc(S(=O)(=O)N2CCOCC2)cn1)C1CCCCC1	6%	10%
CC(C(=O)Nc1ncc2c(n1)CC(C)(C)CC2=O)N1C(=O)c2ccccc2C1=O (stereo not drawn)	-6%	3%

Remaining list, next part
SMILES	TDP1 block	FEN1 inh
O=C(NCCSc1c[nH]c2ccccc12)c1ccco1	-3%	0%
CCOC(=O)c1c(C)[nH]c(C)c1S(=O)(=O)Nc1ccc(CN2CCCCC2)cc1	1%	-2%
Cc1ccc(C2=NNC(c3cccc(F)c3)S2)cc1 (stereo not drawn)	-4%	-5%
CC1=C(C(=O)OCC2CCCCC2)C(c2ccc(F)cc2)NC(=O)N1 (stereo not drawn)	4%	5%
Cc1ccc(S(=O)(=O)NCCC(=O)OCC(=O)N(C)c2ccccc2)cc1	1%	3%
O=C(Nc1ccc(Cl)cc1)Nc1nnc(CSc2ccc(Cl)cc2)s1	3%	14%
Nc1[nH]c(=O)[nH]c(=O)c1N=Nc1ccccc1Cl	0%	15%
COc1cccc(CN2CCNC(=O)C2CC(=O)N(C)Cc2cnccn2)c1OC (stereo not drawn)	0%	4%
Cc1ccc2ncccc2c1N	3%	5%
COc1cccc(C=NCCNC(=O)c2nonc2N)c1O	6%	?
CCC(C)NC(=O)Cn1cnc2sc(C)c(S(=O)(=O)N3CCCCC3)c2c1=O (stereo not drawn)	-11%	2%
COC(=O)CC(c1ccccc1F)N1Cc2ccccc2C1=O (stereo not drawn)	.	11%
CCOCCCN(C(=O)c1snc(C(N)=O)c1N)C(C(=O)NC1CCCC1)c1ccc(O)cc1 (stereo not drawn)	17%	-7%
COc1ccc(C2NCCc3sccc32)cc1 (stereo not drawn)	0%	0%
O=[N+]([O-])c1ccc2nc(-c3ccc(OC(F)F)cc3)cn2c1	8%	0%
O=C(Nc1ccccc1)c1ccc(COc2ccccc2)cc1	-8%	20%
COc1ccc(CC2(CO)CCN(Cc3cnc(-c4ccccc4C)nc3)CC2)cc1	5%	-10%
CN(C)C(CNC(=S)Nc1ccc(Cl)cc1)c1cccnc1 (stereo not drawn)	3%	-3%
COc1ccccc1N(CC(=O)NCc1ccc(F)cc1)C(=O)CCC(=O)Nc1nccs1	?	4%
O=C(NCc1ccccc1)/C(=N\O)c1ccccc1	-6%	-2%
COC(=O)C1=C(C)N(C)C(C)=C(C(=O)OC)C1c1ccc(F)c(Br)c1	-3%	-21%
COc1ccc(C2OC(=O)CC2C(=O)NCc2ccccc2Cl)cc1OC (stereo not drawn)	2%	-2%
CS(=O)(=O)c1ccc2nc(NC(=O)c3cccs3)sc2c1	6%	8%
NS(=O)(=O)c1ccc(Nc2nc(-c3cccc([N+](=O)[O-])c3)cs2)cc1	2%	?
COc1ccc(CC(=O)N[C@@H](CCSC)c2nc3ccccc3[nH]2)cc1	4%	-9%
C/C(=N\NC(=O)c1ccc(NS(=O)(=O)c2cccs2)cc1)c1ccc2ccccc2c1	-3%	-17%
Cc1ccc(NC(=O)CSc2nnc(-c3cc(C)[nH]n3)n2N)c(C)c1	0%	18%
C/C(=N\NC(=S)NCc1ccccc1)c1ccc(C#N)cc1	5%	-7%
CCCc1c(O)nc(SCC(=O)O)[nH]c1=O	10%	-4%

Only part of the results is shown; most or all hits stand in other tables.
